Compound activity (PubChem BioAssay)
AF4-AF9 inh = MLL-AF4/AF9 protein interaction inhibition | 350,000 tested, 0.47% active | AID 651704 | inhibition, % at 10 µM | AlphaScreen, biotin-AF4 peptide binding to FLAG-AF9;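 active = every replicate reaching a set inhibition limit, whatever the replicate mean, cut at about 25% in these data; inconclusive = mean inhibition reaches that limit but some replicates miss it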;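 note: 0% = plate neutral control median and 100% = total signal loss; the record names both 10 and 1 µM as test concentration; the first replicate is given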
Target sequence (P42568 whole entry, looked up): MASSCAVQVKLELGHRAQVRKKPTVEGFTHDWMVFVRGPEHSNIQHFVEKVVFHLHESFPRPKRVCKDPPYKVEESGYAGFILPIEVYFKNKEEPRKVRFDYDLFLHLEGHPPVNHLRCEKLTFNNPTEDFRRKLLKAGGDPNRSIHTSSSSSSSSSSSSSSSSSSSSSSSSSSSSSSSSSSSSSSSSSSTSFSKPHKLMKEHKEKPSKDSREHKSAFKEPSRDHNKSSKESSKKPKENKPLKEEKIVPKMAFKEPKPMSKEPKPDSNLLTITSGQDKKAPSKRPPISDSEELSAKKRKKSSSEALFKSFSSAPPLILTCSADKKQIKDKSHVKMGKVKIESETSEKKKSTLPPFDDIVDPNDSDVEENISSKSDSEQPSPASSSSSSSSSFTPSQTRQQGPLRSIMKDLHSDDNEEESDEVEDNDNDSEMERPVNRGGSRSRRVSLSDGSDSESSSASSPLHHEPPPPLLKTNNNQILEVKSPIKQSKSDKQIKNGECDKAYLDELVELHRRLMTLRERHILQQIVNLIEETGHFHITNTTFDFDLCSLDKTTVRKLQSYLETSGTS
A1 inh = inhibitors of the anti-apoptotic protein A1, read as caspase activation; 330,000 tested, 0.066% active; caspase activation, % (concentration not given with the values); MEF A1-2A-BIM cells, Caspase-Glo 3/7 luminescence, 3 h; percent of clofoctol response, vehicle zero;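 active = over half of replicate activation scores above 10%, or exactly half above 10 with the replicate mean above 10; inconclusive = replicate mean below 10 yet half the replicates above 10; inactive = over half of replicates below 10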;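 note: wells of about 30 µL received 50 nL stock; many hits fall short of the cut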
Vif TR-FRET = HIV-1 Vif–A3G interaction blockers – biochemical, TR-FRET, GST-Vif 1-94, biotin-A3G peptide, dose response retest, primary screen (AID 1117319); one-dose inhibition, %; IC50 in µM for titrated hits; 260,000 tested, 0.57% active; TR-FRET GST-Vif / biotin-A3G peptide binding; higher % means a stronger effect; test concentration not given here; strong numbers were not always called active;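 active = above the screen mean plus three standard deviations and confirmed in dose response; inconclusive = results disagree or hit not tested in dose response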;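 note: Vif residues 1-94 fused to GST binding biotinylated APOBEC3G peptide 110-148; 0% = full assay without inhibitor and 100% = GST in place of GST-Vif; retest series ran down from 100 µM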
T cruzi inh = blocks replication of Trypanosoma cruzi | T. cruzi beta-gal in NIH3T3, luminescence, 90 h | 300,000 tested, 1.4% active | inhibition, % (test concentration not listed);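 active = mean inhibition across valid replicates above about 55%, limit read from the data; inconclusive = mean below that limit but half or more replicates reach it; inactive = mean below it, under half of replicates reach it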;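 note: signal also drops with host cell toxicity which is not excluded here; 0% = plate median of DMSO wells and 100% = zero luminescence signal; higher percent means less beta-gal luminescence so fewer parasites; stock transfer was 50 nL into about 50 µL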
Beta apoptosis = blocks beta cell apoptosis; INS-1E cytokine-induced death, ATP luminescence, 48 h; percent of positive-control rescue, neutral wells zero; protection from apoptosis, % (no concentration beside the values); 300,000 tested, 0.8% active;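 active = all replicates at 75% or more, or half of them and the mean; inconclusive = half reach 75% but not the mean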;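 note: 0% = cytokine-treated negative control wells and 100% = positive control rescue; higher means more ATP so stronger rescue from cytokine killing; wells of about 40 µL received 100 nL stock; the first replicate is given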
Calb FLC = C. albicans growth modulation with fluconazole; C. albicans CaCi-2 (fluconazole-resistant clinical isolate) + fluconazole, Alamar Blue growth, 48 h; growth inhibition, % (concentration not given with the values); 300,000 tested, 0.57% active; AID 1979;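 active = most replicates above 75%; inconclusive = exactly half above 75%; inactive = most below 75%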;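 note: all wells also contain fluconazole at 8 µg/ml as a sub-toxic cotreatment; 0% = median of DMSO wells and 100% = median of geldanamycin control wells; wells of about 8 µL received 7.5 nL stock; the first replicate is given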
RanGTP-Impb inh = inhibitors of RanGTP-importin-beta interaction, primary screen, biochemical, FRET, CFP-Ran, YFP-importin-beta, homogeneous. inhibition, % (test concentration not listed). 300,000 tested, 1.1% active. cell-free CFP-Ran/YFP-importin-beta FRET ratio;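 active = most replicates above 15%; inconclusive = exactly half above 15%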;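 note: 0% = DMSO wells and 100% = Ran loaded with GDP instead of GTP; wells of about 40 µL received 100 nL stock; the first replicate is given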
Ecoli rRNA inh = inhibits bacterial ribosomal RNA function over humanized ribosomes | E. coli WT GFP vs humanized-ribosome RFP mutants, fluorescence, 24 h; hits give low values; DMSO median 0, no signal -100 | GFP signal change (wild-type ribosome), % (test concentration not listed) | 350,000 tested, 1.6% active;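 active = significant combined selectivity score with lowered wild-type GFP, culture density cut under 30%, mutant RFP and density less affected; inactive = any of these conditions unmet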; note: one replicate is shown; some compounds called inactive have numbers as strong as hits
Ecoli rRNA inh OD600 = also measured in Ecoli rRNA inh; calls as there; OD600 change, %; measured here: OD600 growth;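 optical density of the mix in the first replicate; 0 = DMSO median and -100 = no signal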
Ecoli rRNA inh RFP = also measured in Ecoli rRNA inh; calls as there; RFP signal change, %; measured here: RFP humanized mutant strains;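 first replicate; 0 = DMSO median and -100 = no signal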
Starred values were filed as active, the others as inactive; ? = inconclusive; . = not tested or not shown; & = joins results of further samples.

Sequence of screens: AF4-AF9 inh, A1 inh, Vif TR-FRET, T cruzi inh, Beta apoptosis, Calb FLC, RanGTP-Impb inh, Ecoli rRNA inh, Ecoli rRNA inh OD600, Ecoli rRNA inh RFP
1: O=C(c1ncn(Cc2ccccc2)c1C(=O)N1CCN(c2ccccc2)CC1)N1CCN(c2ccccc2)CC1
  8.9, -0.3, ., ., 0, ., ., -12, -18, 12
2: CC(C)c1ccccc1NC(=O)Cn1c(-c2ccccc2Cl)nc2ccccc21
  ., 0.6, -7%, -11, 1, 4, -2.0, ., ., .
3: Cc1ccc2nsnc2c1S(=O)(=O)N(Cc1ccco1)Cc1cc2cccc(C)c2[nH]c1=O
  7.3, -0.5, >100µM*, 4, ., 8, ?, -2, 2, 2.5
4: CN(CC(=O)O/N=C(\N)c1ccccn1)S(=O)(=O)c1ccc(Br)cc1
  ., -0.2, 1%, 2, 3, -7, -2.8, ., ., .
5: COC(=O)Nc1ccc(S(=O)(=O)N2CCCC(C(=O)NCC3CCCO3)C2)cc1 (stereo unspecified)
  3.1, 0.7, ., ., -1, ., ., 1, 12, -1.1
6: C/C(=N\NC(=O)c1c(Cl)c(C)nn1C)c1cccc(NC(=O)COc2ccccc2)c1
  ., -0.5, 17%, -12, -1, 1, 0.5, ., ., .
7: CCCOc1ccc(C(O)CCNC(CC(=O)O)c2ccccc2)cc1 (stereo unspecified)
  0.5, 0.1, 3%, -11, -6, -4, -0.2, 14, 5, -7.8
8: O=C(O)c1ccc(NC(=O)c2ccc3c(c2)C(=O)N(CC2CCCO2)C3=O)cc1 (stereo unspecified)
  0.6, 0.0, ., 1, -2, 5, 1.1, 2, 11, -0.3
9: COc1ccccc1NS(=O)(=O)c1ccc2oc(N)nc2c1
  0.6, -0.3, ., -3, -2, 1, 2.1, 1, 3, -1.1
10: COC(=O)Cn1c(=NC(=O)C2COc3ccccc3O2)sc2cc(S(N)(=O)=O)ccc21 (stereo unspecified)
  1.0, 0.4, ?, 0, -6, 1, 7.3, -22, -24, 12
11: CN(CC(=O)Nc1ccc2c(c1)OCO2)S(=O)(=O)c1ccc(F)cc1
  -0.5, -0.3, ., -3, -3, -3, -0.7, 5, 6, -0.1
12: CC(=O)Nc1ccc(N2CCN(C(=O)c3cccs3)CC2)cc1
  ., -0.4, ?, -1, 8, -27, -1.0, ., ., .
13: CCOC(=O)c1ccc(NC(=O)C(=O)NCC2(c3ccc(OC)cc3)CCOCC2)cc1
  -3.9, 0.1, 9%, 3, 1, -5, 3.0, 4, 9, 0.5
14: COC(=O)c1cccc(NC(=O)CCc2cc(OC)c(OC)c(OC)c2)c1
  ., 0.0, -9%, -3, -4, ?, 0.9, ., ., .
15: CCN(CC(=O)Nc1ccc2c(c1)OCCO2)Cc1cc(=O)oc2c(C)c(C)ccc12
  4.3, -0.9, 16%, 9, 3, 36, -6.9, -11, -6, -2.0
16: CCOC(=O)c1nc(Nc2ccccc2)c2ccccc2n1
  ., -0.1, -3%, 4, -3, 3, 6.8, ., ., .
17: Cc1[nH]n(-c2ccccc2)c(=O)c1C=NCc1ccncc1
  6.9, -0.1, -14%, -6, -7, 0, -1.1, 14, 18, -0.3
18: CC(C)n1nc(C(=O)Nc2ccc(-n3cnnn3)cc2)c2ccccc2c1=O
  1.9, 0.0, -2%, ., 2, ., ., -3, 2, -10.0
19: CN1CCN(Cc2c(O)ccc3occ(C(=O)c4ccccc4)c23)CC1
  ., 0.3, 3%, -15, -6, -19, 3.7, ., ., .
20: O=C(NCC(O)c1ccccc1)c1cccc(S(=O)(=O)N2CCOCC2)c1 (stereo unspecified)
  ., 1.9, 1%, -4, -6, 34, 0.2, ., ., .
21: CCOC(=O)C1=C(C)N(CCCC(=O)O)C(=O)NC1c1ccccc1 (stereo unspecified)
  -1.0, 0.5, ., -14, -1, 2, 0.5, 1, 2, -2.8
22: CC(Cc1ccccc1)C(=O)N1CCN(C)CC1 (stereo unspecified)
  -0.4, -0.3, 6%, 5, -1, -3, 1.1, 6, 11, 2.1
23: O=C(NC1CCC1)C1CCC(=O)N(Cc2cccc(F)c2)C1 (stereo unspecified)
  -1.9, 1.0, 2%, 10, 2, 6, 1.8, ., ., .
24: COc1ccccc1CC(=O)NC12CC3CC(CC(C3)C1)C2
  2.5, 1.1, ., -9, ., -4, 0.0, -5, -9, -0.3
25: CC(=O)CCC(=O)NCCc1ccccc1F
  ., 0.6, -4%, -29, -5, -14, -0.5, 6, -5, -0.3
26: CC(C)(C)NC(=O)CN1C(=O)/C(=C/c2ccccc2)SC1=S
  1.0, 2.6, 15%, 2, -10, -16, -2.3, 8, 12, 2.1
27: CCn1c(SCC(N)=O)nnc1C(C)C
  -1.1, 0.2, 3%, -2, 3, 16, 1.3, 16, 14, 1.1
28: Cc1nc2sc3c(O)cc(=O)[nH]c3c2c(C)c1C
  ., 0.0, 2%, 4, -3, 6, 2.5, ., ., .
29: Cc1ccc(NC(=O)c2cccc(Cl)c2)nc1
  ., -6.5, -2%, -1, 0, -2, -3.3, ., ., .
30: COc1ccc(S(=O)(=O)NCCN2CCOCC2)c(C)c1C
  -2.8, -0.1, -8%, 8, -4, -1, 1.3, 9, 10, 3.5
31: N#CC(Cc1ccc(OC(F)F)cc1)c1nc2ccccc2[nH]1 (stereo unspecified)
  ., -7.4, ., -5, -1, 5, ?, ., ., .
32: O=C(CN1CCN(c2ccccn2)CC1)Nc1ccc(F)cc1
  ., ?, -3%, 2, -7, 20, 4.4, ., ., .
33: Cc1ccc(C)c(NS(=O)(=O)c2c(C)nn(C)c2C)c1
  ., 0.8, -2%, -1, -4, 1, -3.0, ., ., .
34: O=C(C1CCCN(S(=O)(=O)c2cccnc2)C1)N1CCn2c1nc1ccccc12 (stereo unspecified)
  0.0, 1.1, -5%&5%, 8, 1, 3, -0.1, 12, 11, 3.2
35: CNC(=O)Nc1ccc(C2SCCS2)cc1
  ., -1.8, 5%, 10, 10, 1, 3.5, 6, -4, 0.0
36: COc1ccccc1NC(=O)CN(C)S(=O)(=O)c1cc(C)ccc1OC
  ., ., -2%, 1, ., -17, -0.6, ., ., .
37: COc1cc(C(=O)OCC(=O)Nc2ccccc2C(=O)NC2CC2)c([N+](=O)[O-])cc1OC
  -1.9, 0.6, -3%, ., -1, ., ., 2, 10, 0.9
38: COc1cc(OC)cc(C(=O)Nc2cccc3ccccc23)c1
  3.7, -0.4, ., -14, ., 0, -2.1, -12, -15, -4.2
39: CCC(C)Sc1nc(C)nc2c1c(=O)n(C)c(=O)n2C (stereo unspecified)
  -1.1, 0.0, -4%, 8, 8, 3, 1.5, -2, 3, 0.6
40: COc1ccccc1-c1nnc(SC(C)C(=O)O)n1-c1ccccc1 (stereo unspecified)
  -7.9, -0.1, -1%, -6, -1, -11, -0.5, 14, 2, 5.9
41: Cc1cc(C)c2c(=O)[nH]c(SCC(=O)c3ccc(F)c(C)c3)nc2n1
  -2.2, -0.3, ., -6, ., -12, 6.0, 4, 10, -0.7
42: O=C(Nc1ccc(S(=O)(=O)N2CCOCC2)cc1)c1ccc2ncsc2c1
  8.6, -0.7, ., 1, -7, -1, -1.0, -5, 7, 1.9
43: COc1ccc(C2C(C(=O)c3ccco3)=C(O)C(=O)N2Cc2cccnc2)cc1OC (stereo unspecified)
  ., 0.5, 2%, -10, ., -6, -5.0, ., ., .
44: COc1ccccc1-c1noc2ncnc(Nc3cccc(C)c3)c12
  -6.7, -1.5, ., -14, 0, 25, 6.4, 3, 4, 0.9
45: CCCn1ncc(CN2CCC(n3nccc3NC(=O)CCc3ccccc3)CC2)c1C
  2.9, 1.4, ., 11, -8, -1, -1.7, -2, 0, -4.4
46: CC(=O)Nc1cccc(NC(=O)c2cccc3cccnc23)c1
  2.1, -0.6, ., 10, -4, 1, 0.3, -9, -24, -0.8
47: O=C(CCNC(=O)c1ccc(Br)cc1)OCc1ccccc1Cl
  -5.6, 1.0, ., -10, -3, 3, -0.4, -46, -74, -7.5
48: CC1CCCC(C)N1C(=O)COC(=O)c1ccc(S(=O)(=O)N(C)c2ccccc2)cc1 (stereo unspecified)
  1.2, -0.3, -1%, ., -5, ., ., -10, -27, -0.3
49: N#C/C(=C\c1cccc(O)c1)C(=O)N1CCCCC1
  1.7, -0.4, ., 3, -6, 10, 5.5, -4, 6, 0.0
50: Cc1cc(NC(=O)Cn2c(=O)oc3ccccc32)no1
  -1.9, 0.6, -9%, ., 5, ., ., 10, 10, 0.6
51: Cc1c(NC(=O)CN2C(=O)NC(C)(c3ccccc3Cl)C2=O)c(=O)n(-c2ccccc2)n1C (stereo unspecified)
  ., -0.9, ?, -8, -1, -1, 2.9, ., ., .
52: Nn1c(COc2ccccc2)nnc1SC(F)F
  ., -0.1, 4%, -2, -11, 22, 3.3, ., ., .
53: O=C(NNC(=O)c1cccs1)c1ccncc1
  -2.7, 1.5, -1%, -13, -9, -5, -0.3, 10, 6, 0.0

Four records picked at random from the list so far, as already listed:
Sequence of screens: AF4-AF9 inh, A1 inh, Vif TR-FRET, T cruzi inh, Beta apoptosis, Calb FLC, RanGTP-Impb inh, Ecoli rRNA inh, Ecoli rRNA inh OD600, Ecoli rRNA inh RFP
49: N#C/C(=C\c1cccc(O)c1)C(=O)N1CCCCC1
  1.7, -0.4, ., 3, -6, 10, 5.5, -4, 6, 0.0
43: COc1ccc(C2C(C(=O)c3ccco3)=C(O)C(=O)N2Cc2cccnc2)cc1OC (stereo unspecified)
  ., 0.5, 2%, -10, ., -6, -5.0, ., ., .
2: CC(C)c1ccccc1NC(=O)Cn1c(-c2ccccc2Cl)nc2ccccc21
  ., 0.6, -7%, -11, 1, 4, -2.0, ., ., .
41: Cc1cc(C)c2c(=O)[nH]c(SCC(=O)c3ccc(F)c(C)c3)nc2n1
  -2.2, -0.3, ., -6, ., -12, 6.0, 4, 10, -0.7

Not all compounds are listed. The share of hits here may be higher or lower than overall.
